NS1 inh – qHTS Assay for Inhibitors of Influenza NS1 Protein Function; S. cerevisiae slowed by influenza A NS1, growth recovery by OD600; Potency, µM (highest dose often 46.1 µM), without a hit: top-dose activity, positive = more growth; 270,000 compounds, 0.4% hits; AID 2326, 2010; active means well fitted rising curve with a large enough effect; inconclusive means small, poorly fitted or top-dose-only effect; inactive means no such curve, though single readings can be large or run the other way; note: nearly all actives have a fitted effect of over 50% in size
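Recovery from NS1-induced slow growth read by OD600 in budding yeast switched to galactose assay medium (pH 6.0, -URA) at 1:100 dilution. Compound 23 nl per well; the matching strain lacking NS1 serves as control.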
StopGo reporter – High Throughput Screening for Foot and Mouth Disease Virus Antivirals; 410,000 compounds, 1.2% hits; human cells with a luciferase reporter of 2A StopGo recoding; control for the full effect not named in the record; AID 1159524, 2015; Potency, µM (highest dose often 57.9 µM), inactives show top-dose signal change, negative = less light; active = well fitted falling curve with a large enough effect; inconclusive = small, poorly fitted or top-dose-only effect; inactive = no such curve, though single readings can be large or run the other way; tested in HEK293T cells; note: % is set by controls: 0 for no effect and ±100 for the full control effect; nearly all actives have a fitted effect of over 45% in size; luciferase light after 4 h
Lassa entry inh – qHTS for Inhibitors of binding or entry into cells for Lassa Virus; 300,000 compounds, 1.2% hits; Lassa virus pseudotype entry inhibition, cell reporter; control for the full effect not named in the record; Potency, µM (top dose mostly 37.9 µM), for inactives: at the top dose activity change, negative = inhibition, most hits filed as inhibitors; AID 540256, 2011; active means well fitted inhibition curve with a large enough effect; inconclusive means small, poorly fitted or top-dose-only effect, or effect the other way; inactive means flat fitted curve, though single readings scatter; tested in HEK293 cells; note: % is set by controls: 0 for no effect and ±100 for the full control effect; nearly all actives have a fitted effect of over 50% in size; luciferase read-out
Marburg entry inh – qHTS for inhibitors of binding or entry into cells for Marburg Virus; Marburg virus pseudotyped entry inhibition, cell reporter; control for the full effect not named in the record; about a third of the inactives were read at about 46 µM; Potency, µM (top dose mostly 37.8 µM), for inactives: top-dose activity change, negative = inhibition, usual class: inhibitors; 300,000 compounds, 1.8% hits; active = well fitted inhibition curve with a large enough effect; inconclusive = small, poorly fitted or top-dose-only effect, or effect the other way; inactive = flat fitted curve, though single readings scatter; tested in HEK293 cells; about a fifth of its hits are not listed in these tables; note: % is set by controls: 0 for no effect and ±100 for the full control effect; luciferase read-out
Cruzain inh Det – qHTS Assay for Promiscuous and Specific Inhibitors of Cruzain (with detergent); Cruzipain (Trypanosoma cruzi), P25779; purified cruzain, Z-FR-AMC fluorescence, 0.01% Triton; Potency, µM, for the others: max response, negative = inhibition, most hits filed as inhibitors; 200,000 compounds, 0.43% hits;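 note: plate controls were neutral wells for no effect and buffer without enzyme for full effect; nearly all actives have a fitted effect of over 40% in size; top concentration of the series not given in the record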
Target sequence (P25779 123-467 limits assumed): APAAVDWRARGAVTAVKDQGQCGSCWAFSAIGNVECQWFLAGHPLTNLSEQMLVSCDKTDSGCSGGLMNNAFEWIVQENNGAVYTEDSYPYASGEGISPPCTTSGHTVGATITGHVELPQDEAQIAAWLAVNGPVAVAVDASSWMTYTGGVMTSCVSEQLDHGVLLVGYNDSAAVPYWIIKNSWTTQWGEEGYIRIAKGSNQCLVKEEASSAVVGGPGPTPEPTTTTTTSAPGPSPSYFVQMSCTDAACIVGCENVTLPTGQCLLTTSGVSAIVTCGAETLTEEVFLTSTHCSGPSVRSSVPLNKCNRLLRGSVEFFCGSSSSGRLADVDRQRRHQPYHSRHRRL
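Steps: dispense cruzain (1.5 nM final) in acetate buffer pH 5.5 with DTT and 0.01% Triton X-100; pin-transfer compounds; incubate 15 min RT; add Z-FR-AMC (2 uM final); read fluorescence every 30 s, using the 60 s intensity change.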
RE007 growth inh – qHTS Assay for Inhibitors of the HIV-1 protein Vpr; S. pombe RE007 Vpr strain, BacTiter-Glo ATP luminescence, 24 h; control for the full effect not named in the record; 360,000 compounds, 0.21% hits; Potency, µM (top dose mostly 92.2 µM), inactives show top-dose activity change, negative = less growth; AID 651644, 2012; active = well fitted falling curve with a large enough effect; inconclusive = small, poorly fitted or top-dose-only effect; inactive = no such curve, though single readings can be large or run the other way;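 note: % is set by controls: 0 for no effect and ±100 for the full control effect; nearly all actives have a fitted effect of over 50% in size; the assay follows cell death caused by Vpr and the record does not say whether a fall means rescue or toxicity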
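Fission yeast RE007 carrying one integrated HIV-1 vpr copy, seeded at OD 0.01 in PMG+AL medium with 23 nL pinned compound. Grown 24 h at 30 degrees; viability read by BacTiter-Glo luminescence after 5 min.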
Cruzain noTriton – qHTS Assay for Promiscuous and Specific Inhibitors of Cruzain (without detergent) | purified cruzain, Z-FR-AMC fluorescence, no detergent | AID 1476, 2009 | Cruzipain (Trypanosoma cruzi), P25779 | 200,000 compounds, 2.3% hits | Potency, µM, without a hit: max response, negative = inhibition, usual class: inhibitors;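 note: plate controls were enzyme without inhibitor for no effect and buffer without enzyme for full effect; nearly all actives have a fitted effect of over 40% in size; top concentration of the series not given in the record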
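Detergent-free condition (0.00005% Triton X-100) in acetate buffer pH 5.5 with DTT. 1.5 nM enzyme and compound were pre-mixed 15 min, then 2 uM Z-FR-AMC substrate added; reaction progress from fluorescence change between first and third reads (60 s).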
SARS PLP yeast – qHTS of Yeast-based Assay for SARS-CoV PLP. S. cerevisiae expressing SARS-CoV PLpro, growth rescue; control for the full effect not named in the record. Potency, µM (titrated, usually from 32.9 µM), without a hit: at the top dose activity, positive = growth rescue. 330,000 compounds, 0.19% hits. AID 485353, 2010; active means well fitted rising curve with a large enough effect; inconclusive means small, poorly fitted or top-dose-only effect; inactive means no such curve, though single readings can be large or run the other way; note: 0% is about no effect; nearly all actives have a fitted effect of over 55% in size; growth read by luminescence after 48 h
* hit, by the source's call; ? = inconclusive; . = not tested or not shown; & = joins results of further samples; [ ] = remark or other dose. Unless noted, calls come from the whole dose curve; as a rule, active = well fitted curve in the direction sought with a large enough effect; inconclusive = small, poorly fitted or top-dose-only effect, or another doubt; inactive = no such curve, though single readings can be large; an effect the other way counts as inactive or inconclusive. Potency is the fitted concentration of half-maximal effect. An unsorted share of the library; about 4.6% have a hit in one of these screens.

mol	NS1 inh	StopGo reporter	Lassa entry inh	Marburg entry inh	Cruzain inh Det	RE007 growth inh	Cruzain noTriton	SARS PLP yeast
CCc1ccccc1NC(=O)Cn1c(C(=O)OC)cc2oc(C)cc21	.	-1%	.	-24%[46.1 µM]	-0.8%	.	2%	.
COc1ccc(S(=O)(=O)N2CCN(c3ccccc3)CC2)cc1	-3%	-19%	?	-9%[46.1 µM]	.	36%	.	1%
O=C(Nc1ccccc1Cl)NC1(C(=O)N2CCCC2)CCCCC1	-1%	-17%	8%	0%	-1.9%	-5%	-1%	10%
Cn1c(=O)cc(SCC(=O)NCCC2=CCCCC2)c2ccccc21	2%	4%	-2%	-2%	-4.4%	19%	3%	10%
Cc1ccc(OC(=O)c2ccccc2C(=O)OCC(F)(F)C(F)F)cc1	-9%	-9%	1%	-11%	-12%	-14%	-1%	-11%
O=C(CNS(=O)(=O)c1cccs1)NCc1ccccc1	.	6%	4%[46.1 µM]	3%[46.1 µM]	.	-8%	.	2%
Cc1nn(-c2ccc(Cl)cc2)c2nc(-c3cccnc3)cc(C(F)(F)F)c12	.	-10%	-5%[46.1 µM]	-2%[46.1 µM]	-0.5%	.	5%	.
CCCS(=O)(=O)c1c(S(=O)(=O)CCC)c2c(N)cccn2c1C(=O)c1ccc(Br)cc1	?	4%	?	?	-13%	2%	?	-3%
O=C(Nc1ccc(S(=O)(=O)N2CCCC2)cc1)C1CCCCC1	5%	2%	-28%[46.1 µM]	15%[46.1 µM]	.	-2%	.	-1%
COc1ccc(C(=O)N2CCCC2)cc1	-7%	0%	36%[14.3 µM]	8%	13%	3%	-4%	0%
Cn1c(N2CCCCC2)nc2c1c(=O)n(Cc1cccc(Br)c1)c(=O)n2C	-34%	-25%	12%	-7%	-9.0%	12%	?	-1%
c1cnc2ccc3ncccc3c2c1	-2%	27%	.	-1%	.	-1%	.	-1%

Continued.
mol	NS1 inh	StopGo reporter	Lassa entry inh	Marburg entry inh	Cruzain inh Det	RE007 growth inh	Cruzain noTriton	SARS PLP yeast
O=C(COC(=O)C1CC(=O)N(Cc2ccccc2)C1)c1ccc(F)cc1 (stereo not given)	.	11%	1%	3%[46.1 µM]	.	-3%	.	-4%
CC(=O)Nc1cccc(Oc2cc(C#N)c(C#N)cc2N2CCCCCC2)c1	3%	?	-21%	?	-4.3%	4%	27%	-10%
CCCCn1cnc2c(=S)nc(N)[nH]c21	6%	0%	-11%[46.1 µM]	-19%[46.1 µM]	.	-10%	.	2%
CC(C)[C@H](NC(=O)C1CCN(S(=O)(=O)c2ccccc2)CC1)C(=O)NCc1ccccc1	?	-12%	.	.	.	-4%	.	12%
CC(=NNC(=S)N(Cc1ccccn1)Cc1ccccn1)c1cnccn1	.	-6%	2.8µM*	?	.	?	.	.
COc1cccc(CN2CCN(Cc3cccc4c3OCO4)CC2CCO)c1 (stereo not given)	0%	4%	4%	3%[46.1 µM]	.	-12%	.	0%
COc1cc(C(=O)Nc2ccc3oc(-c4cccnc4)nc3c2)cc(OC)c1OC	.	?	-25%	?	.	-2%&0%	.	4%
Cc1ccc(NC(=O)Nc2nnc(SCC(=O)N(C(C)C)C(C)C)s2)cc1	.	0%	-8%[46.1 µM]	.	0.6%	.	-6%	.
Cc1cccc(SC2CCN(C(=O)C3CCC(=O)N(C4CC4)C3)CC2)c1 (stereo not given)	-2%	-20%	.	.	.	-2%	.	-6%
CSC1=N/C(=C\c2c(F)cccc2Cl)C(=O)S1	21%	-23%	1%	5%	-5.9%	-11%	-12%	15%
Cc1ccc(CNC(=O)CN2C(=O)c3ccccc3S2(=O)=O)cc1	-2%	28%	13%[46.1 µM]	5%[46.1 µM]	.	-12%	.	2%
COc1ccc(CN2CCN(C(=O)c3ccc(F)cc3)CC2)c(OC)c1	5%	-13%	.	.	.	-5%	.	3%

The list continues.
mol	NS1 inh	StopGo reporter	Lassa entry inh	Marburg entry inh	Cruzain inh Det	RE007 growth inh	Cruzain noTriton	SARS PLP yeast
CN1C(=O)Cc2cc(S(=O)(=O)CCC(=O)N3CCN(c4ccc(Cl)cc4)CC3)ccc21	.	0%	.	.	0.9%	.	2%	.
COc1ccc(-c2c(-c3ccc(O)cc3O)n[nH]c2C(F)(F)F)cc1	1%	-12%	.	3%	.	12%	.	1%
COc1ccc(S(=O)(=O)Nc2nc3n(n2)C(c2ccc(Cl)cc2)CC(=O)N3)cc1 (stereo not given)	10%	6%	14%	6%	4.3%	-4%	-8%	-3%
O=C(CN1CCOCC1)N/N=C/c1ccc(-c2cccc(Cl)c2Cl)o1	-2%	-18%	-7%	5%[46.1 µM]	.	4%	.	0%
Cc1ccc(N(C(=O)c2csnn2)C(C(=O)NC2CCCC2)c2ccccn2)cc1 (stereo not given)	7%	20%	.	19%[46.1 µM]	.	3%	.	0%
COc1ccc(OCC(=O)Nc2ccc(S(=O)(=O)N3CCN(C)CC3)cc2)cc1	-2%	-4%	-18%	-15%[46.1 µM]	.	-4%	.	1%
O=C(CSc1nnc(-c2ccncc2)n1-c1ccc(Cl)cc1)Nc1ccc(C(=O)O)cc1	.	3%	-3%	12%[46.1 µM]	.	-3%	.	-1%
Cc1ccc(Sc2cc(C)nc(-c3ccccn3)n2)cc1	-99%	41%[activator]	?	-21%[46.1 µM]	.	?	.	-15%
COc1ccc(NC(=S)N(CCCN2CCCCC2)Cc2cccs2)cc1	1%	20%	-5%	?	1.4%	-11%	-1%	12%
CCN(CC(=O)Nc1ccccc1OC)C(=O)CSCc1c(C)noc1C	-6%	-14%	-1%	-11%	.	7%	.	28%
CC1CCCN(C(=O)Cn2cnc3c2c(=O)n(C)c(=O)n3C)C1 (stereo not given)	4%	-11%	6%	0%	8.4%	4%	5%	15%
Cc1ccc(C)c(N2CCN(C(=O)C3CCCN(S(=O)(=O)c4cccc5nonc45)C3)CC2)c1 (stereo not given)	.	-23%	16%[46.1 µM]	-9%[46.1 µM]	-4.4%	.	3%	.

The listing continues:
mol	NS1 inh	StopGo reporter	Lassa entry inh	Marburg entry inh	Cruzain inh Det	RE007 growth inh	Cruzain noTriton	SARS PLP yeast
O=c1c(Cc2ccc(F)cc2)c(O)ccn1Cc1cccc(Cl)c1	-3%	-6%	?	2%[46.1 µM]	-9.2%	24%	8%	8%
O=C(CNC(=O)Cc1ccccc1)N=Nc1c(O)[nH]c2ccc(Br)cc12	5%	-2%	?	-1%[46.1 µM]	.	-4%	.	6%
COc1ccc(NC(=O)COc2ccc(/C=N/NC(=O)c3cccnc3)cc2OC)cc1	16%	10%	5%	?	?	7%	?	-6%
CCc1nnc(NC(=O)COc2ccccc2[N+](=O)[O-])s1	0%	53%[activator]	.	.	.	4%	.	0%
COCCn1c(SCC(=O)NNC(=O)c2ccc(OC)c(OC)c2)nc2ccccc2c1=O	.	-10%	-2%	?	.	-4%	.	1%
COc1ccc(C2=C(CN(C)C)C(c3ccccc3)c3ccccc3O2)cc1 (stereo not given)	-19%&-35%	0%	13µM*	?	-0.4%&7.1%	11%	6%&7%	-4%&1%
C(=C\c1ccccc1)/C=N/Nc1nncc(-c2ccccc2)n1	1%	.	0%	32%	-6.2%	.	?	9%
O=C(Cn1c(=O)c2sccc2n(CC(=O)Nc2ccc(Cl)cc2Cl)c1=O)NCCc1ccccc1	.	-12%	2%[46.1 µM]	2%[46.1 µM]	1.1%	.	4%	.
C/C(=N\N=C1/NC(=O)C(C)S1)c1ccco1 (stereo not given)	1%	9%	0%	24%[46.1 µM]	.	-3%	.	1%
Cc1ccccc1Cn1c(-c2cccs2)nc2ccccc21	.	-22%	-2%[46.1 µM]	2%[46.1 µM]	-6.5%	.	-5%	.
CCCC(=O)Nc1ccccc1N1CCN(C(=O)c2ccccc2)CC1	-1%	-11%	-4%	-15%	-0.8%	4%	4%	6%
CCn1nc(C(=O)NCCc2ccc3c(c2)OCCO3)c2ccccc2c1=O	.	-13%	?	?	.	8%	.	-3%

(list continues)
mol	NS1 inh	StopGo reporter	Lassa entry inh	Marburg entry inh	Cruzain inh Det	RE007 growth inh	Cruzain noTriton	SARS PLP yeast
CCCCNC(=O)CCc1nc2cccnc2n1Cc1ccc(OC)cc1	0%	11%	8%	?	-6.2%	-13%	10%	-13%
COc1ccc(/C=N/NC(=O)COc2cccc3cccnc23)cc1OC	.	-16%	11%	?	.	-1%	.	-4%
COc1ccc2[nH]c(=O)c(CN(C(=O)COc3ccccc3)C(C)C)cc2c1	-37%	-30%	-24%	-2%	-0.6%	-1%	1%	0%
CC(C(=O)OCC(=O)NC1CCCC1)N1C(=O)c2ccccc2C1=O (stereo not given)	.	-13%	11%	4%	.	26%	.	4%
O=C(N/N=C/c1ccc[nH]1)c1cc(-c2ccc(Cl)cc2)nc2ccccc12	5%	?	?	?	.	5%	.	-2%
Cc1cccc(C(=O)NCC(=O)N2CCN(c3ccc(Cl)cc3)CC2)c1	-11%	-10%	-26%[46.1 µM]	-5%[46.1 µM]	.	12%	.	-1%
COc1ccc(C2CC(=O)c3cnc4c(-c5ccccc5)c(C)nn4c3C2)cc1OC (stereo not given)	.	-21%	8%[46.1 µM]	7%[46.1 µM]	-0.1%	.	-3%	.
Cc1cc(C)c(C#N)c(SCC(=O)Nc2ccccc2C)n1	-5%	-5%	1%[46.1 µM]	-1%[46.1 µM]	.	35%	.	0%
C(#Cc1ccccc1)CN1CCN(c2ccccn2)CC1	-10%	20%&-2%	11%[46.1 µM]	18%[46.1 µM]	0.0%	-14%&1%	5%	?
CC(C)Cc1ccc(C(C)C(N)=NCCc2ccccc2)cc1 (stereo not given)	-3%	-30%	?	2.2µM*	.	-21%	.	-3%
